HNF4A DNA FP – change in binding of human HNF4 alpha to DNA. P41235. HNF4a-FITC DNA binding, fluorescence polarization, 1 h. activity change, % at 10 µM. hit rate 0.3% among 360,000. AID 1224865; in the data active means activity change above about 30%, passing the limit was not always enough;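 further: controls were the assay level and a saturating level of protein; the project sought stronger binding though the title names inhibitors; some compounds called inactive have numbers as strong as hits; positive values seem to mean higher polarization but the record does not say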
Target sequence (P41235 whole entry, looked up): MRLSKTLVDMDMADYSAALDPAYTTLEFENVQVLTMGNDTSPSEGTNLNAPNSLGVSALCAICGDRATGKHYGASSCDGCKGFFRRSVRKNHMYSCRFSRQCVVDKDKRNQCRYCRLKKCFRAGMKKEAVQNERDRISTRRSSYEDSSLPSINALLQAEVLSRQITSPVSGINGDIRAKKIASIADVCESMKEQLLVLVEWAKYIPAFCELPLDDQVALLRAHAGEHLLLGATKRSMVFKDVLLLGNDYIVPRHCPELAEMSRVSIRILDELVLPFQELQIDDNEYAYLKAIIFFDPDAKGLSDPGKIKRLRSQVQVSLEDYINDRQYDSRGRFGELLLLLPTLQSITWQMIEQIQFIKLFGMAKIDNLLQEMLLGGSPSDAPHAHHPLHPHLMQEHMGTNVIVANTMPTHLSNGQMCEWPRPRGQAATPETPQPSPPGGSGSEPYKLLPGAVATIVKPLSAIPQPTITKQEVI
E coli growth – inhibitors of Escherichia coli growth. OD600, 23 h; hits give low values. OD600 absorbance (no concentration beside the values). hit rate 0.21% among 330,000. AID 1053175;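 active means OD600 absorbance below the run mean of sample wells minus 3.6 SD, in any replicate, cut at about 0.56 in these data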;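 further: stock transfer was 300 nL into about 60 µL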
ALR inh – human ALR oxidase inhibition via reduced H2O2. purified ALR, DTT oxidation, H2O2 HRP-luminol luminescence. inhibition, % (no concentration beside the values). hit rate 3.8% among 290,000;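 active means mean and each replicate at 75% or more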;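 further: stock transfer was 7.5 nL into about 7.5 µL; 0% = neutral wells and 100% = wells with inactivated enzyme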
Target sequence (P55789 whole entry, looked up): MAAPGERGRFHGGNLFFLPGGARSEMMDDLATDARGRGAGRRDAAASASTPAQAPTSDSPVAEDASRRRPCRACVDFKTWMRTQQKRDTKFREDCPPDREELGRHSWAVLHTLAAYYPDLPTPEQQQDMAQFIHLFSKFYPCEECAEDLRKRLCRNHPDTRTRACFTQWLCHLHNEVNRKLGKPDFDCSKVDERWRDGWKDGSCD
UCH37 inh – inhibitors of human deubiquitinating enzyme UCH37; purified proteasome/UCH37, Ub-AMC cleavage fluorescence; inhibition, % (concentration not given with the values); hit rate 0.33% among 330,000;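 active means mean of two replicates above 20%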;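 further: 0% = compound-free wells with enzyme and 100% = wells lacking proteasome; stock transfer was 100 nL into about 20 µL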
Target sequence (Q9Y5K5 whole entry, looked up): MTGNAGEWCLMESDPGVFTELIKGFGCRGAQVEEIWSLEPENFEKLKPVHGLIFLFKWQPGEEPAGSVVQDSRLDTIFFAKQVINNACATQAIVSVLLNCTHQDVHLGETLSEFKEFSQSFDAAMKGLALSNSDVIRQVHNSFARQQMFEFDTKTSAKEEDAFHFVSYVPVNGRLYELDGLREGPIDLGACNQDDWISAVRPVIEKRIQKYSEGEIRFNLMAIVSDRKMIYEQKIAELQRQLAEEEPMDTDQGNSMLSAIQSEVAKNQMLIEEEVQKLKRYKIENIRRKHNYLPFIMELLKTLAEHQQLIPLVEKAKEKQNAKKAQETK
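Assay system: Proteasome-bound UCH37. Buffer or medium: pH 7.4 Tris-HCl (50 mM) with ovalbumin, ATP-MgCl2, DTT. Incubation: 30 min preincubation with enzyme, 25 min cleavage at room temperature. Measured by: fluorescence, ex 355 nm, em 460 nm. Read-out basis: percent inhibition. Control set: wells without proteasome as full block, compound-free enzyme plus substrate as uninhibited.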
FGF22 binding – binders of recombinant human FGF22 by thermal shift. Q9HCT0. SYPRO orange fluorescence; percent of sucrose octasulfate shift, DMSO zero. calls only at 9.99 µM. hit rate 1.5% among 340,000;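 active means melting point raised past a set limit in the mean and every replicate; three in four hits are not shown here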
B2AR ag – human beta-2 adrenergic receptor agonism by FAP; P07550; Am2.2-beta2AR cells, FAP receptor internalization, flow cytometry; reference of the scale not given here; response, % (concentration not given with the values); hit rate 0.43% among 340,000;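 active means response above a set limit, near 3 SD of response in nonfluorescent compounds, cut at about 42% in these data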;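 further: stock transfer was 100 nL into about 11 µL; a reference agonist was the positive control; negative values mostly stem from fluorescent compounds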
LANA-H2B inh – blocks KSHV LANA binding to histone H2A/H2B; Q9QR71; cell-free LANA-H2A/H2B peptide, fluorescence polarization; inhibition, % (test concentration not listed); hit rate 0.6% among 320,000; in the data active means inhibition mostly above about 10%, no sharp cut-off; inactive means mostly below about 6.7%;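 further: stock transfer was 7.5 nL into about 10 µL; 0% = median of vehicle wells and 100% = median of positive control wells; one replicate is shown; the record names a cut of 25% in any replicate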
Active calls of the source: *; i = inactive; / = not tested or not shown. The list is partial; rates above refer to the full screens.

SMILES	HNF4A DNA FP	E coli growth	ALR inh	UCH37 inh	FGF22 binding	B2AR ag	LANA-H2B inh
CCOC(=O)CNC(=O)C1c2cc(OC)c(OC)cc2C(=O)N(C)C1c1ccccc1F (stereo unspecified)	-4.2	0.71	-19	1.7	/	-2	3.0
O=C1CC(C(=O)Nc2ccc(Cl)cc2[N+](=O)[O-])C2(CCCCC2)O1 (stereo unspecified)	4.9	0.71	-12	-0.1	i	0	-9.8
CC/C(=N\NC(=O)C1CCCC1)c1cccc(Br)c1	-1.1	/	-12	/	i	-6	3.8
N#CC1=C(N)C(C#N)(C#N)C2(C(=O)Nc3ccccc32)C2CCCC=C12 (stereo unspecified)	-2.6	0.71	53	3.4	/	4	5.7
COc1ccc(/C=N/NC(=O)c2cccc([N+](=O)[O-])c2)c2ccccc12	-2.0	/	7	/	i	13	0.6
O=C(COC(=O)/C=C/c1cccs1)Nc1nc(-c2cccc(Br)c2)cs1	2.0	0.76	-1	1.6	i	0	5.1
O=C(CNC(=O)c1ccco1)Nc1ccc(Br)cc1	-0.5	0.62	/	0.7	i	9	2.1
COC(=O)[C@@]1(Cc2ccc(F)cc2)[C@H]2c3cc(C(=O)N4CCCC4)n(Cc4ccc(C(F)(F)F)nc4)c3C[C@H]2CN1C(=O)c1ccccc1	/	/	-8	-0.5	i	/	-0.3
COc1ccc(CNC(=O)c2ccc[nH]2)cc1Cl	-1.1	0.6	-6	0.5	i	3	-0.8
O=C(O)c1ccc(S(=O)(=O)Nc2cccc(CP(=O)(c3ccccc3)c3ccccc3)c2)cc1	-1.5	0.73	-3	2.7	i	-1	-3.0
CCN(CC(=O)Nc1c(F)cccc1F)C(=O)C1CCN(C(=O)c2ccc(F)cc2)CC1	1.5	0.69	-3	3.0	i	3	3.7
NS(=O)(=O)c1cccc(NC(=O)COC(=O)c2ccc(S(=O)(=O)N3CCOCC3)cc2)c1	2.4	0.69	/	5.1	i	-6	/
CCCN1C2CCCC1CC(NC(=O)c1cccc(OC)c1)C2 (stereo unspecified)	4.4	0.66	-5	2.4	i	-3	1.8
CC(=O)C1=C(O)C(=O)N(c2ccc(O)cc2)C1c1ccc(F)cc1 (stereo unspecified)	2.0	0.73	70	7.3	i	2	0.5
O=C(COc1ccc(Cl)cc1)Nc1ccc2oc(-c3ccncc3)nc2c1	-1.9	0.69	-12	-21	/	3	2.1
CC12CCC(=O)N1C(C(=O)NNC(=O)c1ccc(Br)cc1)CS2 (stereo unspecified)	1.9	0.62	-4	1.6	i	-8	-290
CC(C)Cc1nc2ccc(N)cc2[nH]1	-0.7	0.73	100*	3.2	i	3	-6.0
CC(=O)c1c(Nc2ccc3c(c2)OCCO3)oc(C)cc1=O	-3.6	0.71	-8	7.1	i	-4	-2.6
Cc1ccc(CNC(=O)CCS(=O)(=O)c2ccc3c(c2)NC(=O)CO3)cc1	7.2	0.71	-1	1.9	i	4	-4.5
CCOC(=O)C1=C(C)Nc2nc(SCc3cccnc3)nn2C1c1ccc(OC)cc1 (stereo unspecified)	1.3	0.73	/	0.5	i	-11	-0.2
O=S(=O)(Cc1ccccc1)N1CCN(Cc2ccc3c(c2)OCO3)CC1	1.6	0.7	-9	3.0	/	1	1.0
O=C(Cn1cnc2c(nnn2Cc2ccc(F)cc2)c1=O)NCc1ccc2c(c1)OCO2	-1.3	0.63	-3	0.7	/	-3	4.9
CCc1nc2ccccc2c(NC(=O)CN2CCC(C)CC2)c1C	-4.7	0.72	-8	3.5	/	-2	3.4
Cc1cn([C@H]2C[C@H](O)[C@@H](COS(=O)(=O)O)O2)c(=O)[nH]c1=O	-0.1	/	-4	/	i	7	4.3
CC(C)N(C(=O)Cn1c(SCC(=O)Nc2nccs2)nc2ccccc21)C(C)C	0.1	0.67	-15	1.6	/	-7	0.9
COc1ccc(OC)c(NC(=O)CSc2ncccn2)c1	1.1	0.67	-6	0.5	/	1	5.4
CCN1C(=O)/C(=C\c2cn(-c3ccccc3)nc2-c2cccnc2)SC1=S	3.4	0.74	/	4.1	i	9	/
COc1cccc(Nc2nnc(SCC(=O)N3CCOCC3)s2)c1	1.3	0.69	/	0.8	/	5	/
O=C(O)c1cc(S(=O)(=O)N2CCN(c3ccccn3)CC2)ccc1Cl	-3.4	0.71	-7	3.2	i	-4	1.0
N#Cc1c(Nc2ccc(F)cc2)sc(C(=O)c2ccc(F)cc2)c1N	3.1	0.67	-5	-15	i	-4	3.5
CSCc1nc2scc(-c3ccccc3)c2c(=O)[nH]1	-2.6	0.67	/	-10	i	4	/
COc1ccc(/C=N\NS(=O)(=O)c2ccc(C)cc2)cc1COc1ccccc1[N+](=O)[O-]	1.0	/	-1	/	/	8	-0.4
CCN(CC)CCOC(=O)c1ccc(NC(=O)c2ccc(Cl)c(S(=O)(=O)N3CCCCCC3)c2)cc1	-2.5	0.71	/	-1.0	i	11	4.4
Cc1c(NS(=O)(=O)c2cc(C(=O)NCCc3ccc(F)cc3)cc(Cl)c2Cl)c(=O)n(-c2ccccc2)n1C	7.8	0.73	/	5.5	i	0	/
COC(=O)c1ccc(OC(C)C(=O)c2ccc(C)cc2)cc1 (stereo unspecified)	-1.1	0.69	-1	3.3	i	-4	-4.3
O=S(=O)(c1ccccc1)N(CC(O)CN1CCCCC1)c1ccccc1 (stereo unspecified)	0.1	0.72	-3	-1.3	/	6	0.5
C(=N\n1cnnc1)/c1ccccc1OCCOc1ccccc1	-1.6	/	1	/	/	2	3.5
Cc1ccc(-n2ncc3c(=O)n(CC(=O)NCC4CCCO4)cnc32)cc1 (stereo unspecified)	-2.8	0.75	0	-3.0	/	-13	-6.2
COc1ccc(C(c2nnnn2Cc2cccs2)N2CCN(c3ccccc3F)CC2)cc1 (stereo unspecified)	-1.3	0.75	-2	-0.2	/	35	-2.1
CCOC(=O)c1c(CN2CCN(c3ccccc3)CC2)oc2ccc(O)cc12	3.1	0.72	71	4.7	i	-5	-0.8
COc1ccc(NC(=O)CC2SC(=NCc3ccccc3OC)NC2=O)cc1 (stereo unspecified)	-2.5	0.68	-2	3.1	/	1	-4.8
O=C(CSc1nccc(=O)[nH]1)Nc1ccc(N2CCOCC2)cc1	0.8	0.71	4	-0.5	i	-6	-0.2
CC(=O)Nc1ccc(C(=O)N(C2=NC(C)CS2)c2ccc(Cl)cc2)cc1 (stereo unspecified)	-1.4	0.7	29	1.4	i	-10	-6.6
CSCCC(NC(=O)c1ccccc1)C(=O)NCCc1ccc2c(c1)OCCO2 (stereo unspecified)	1.9	0.68	/	4.0	i	-4	1.6
Cc1nc(SCC(=O)N2CCN(c3ccccc3)CC2)c2oc3ccccc3c2n1	0.1	0.75	/	1.7	/	12	2.3
O=C(CSc1nnc(Cc2cccs2)n1Cc1ccco1)Nc1cc(Cl)cc(Cl)c1	-1.1	0.68	6	3.3	/	-4	-5.5
CC1(C)NC(=O)N(CC(=O)N2CCN(c3cccc(C(F)(F)F)c3)CC2)C1=O	-5.1	0.67	0	4.0	i	1	4.7
COCC(=O)NCCSc1c(C)[nH]c2ccccc12	-1.3	0.71	86*	3.5	i	-3	1.7
Cc1ccc(N(CC(=O)N/N=C/c2cc(C)n(-c3ccccc3C)c2C)S(C)(=O)=O)cc1	0.2	/	0	/	/	-1	-1.4
CCN1C(=O)[C@H]2[C@@H](c3ccc(C)cc3)N3C(=O)N(c4cccc(F)c4)C(=O)[C@@]3(Cc3ccc(Cl)cc3)[C@H]2C1=O	0.1	/	-5	-7.6	i	5	-3.4

An excerpt from above in order of molecular weight, falling.
SMILES	HNF4A DNA FP	E coli growth	ALR inh	UCH37 inh	FGF22 binding	B2AR ag	LANA-H2B inh
O=C(CSc1nnc(Cc2cccs2)n1Cc1ccco1)Nc1cc(Cl)cc(Cl)c1	-1.1	0.68	6	3.3	/	-4	-5.5
Cc1ccc(N(CC(=O)N/N=C/c2cc(C)n(-c3ccccc3C)c2C)S(C)(=O)=O)cc1	0.2	/	0	/	/	-1	-1.4
COc1ccc(NC(=O)CC2SC(=NCc3ccccc3OC)NC2=O)cc1 (stereo unspecified)	-2.5	0.68	-2	3.1	/	1	-4.8
CC1(C)NC(=O)N(CC(=O)N2CCN(c3cccc(C(F)(F)F)c3)CC2)C1=O	-5.1	0.67	0	4.0	i	1	4.7
COCC(=O)NCCSc1c(C)[nH]c2ccccc12	-1.3	0.71	86*	3.5	i	-3	1.7

Other results
SMILES	HNF4A DNA FP	E coli growth	ALR inh	UCH37 inh	FGF22 binding	B2AR ag	LANA-H2B inh
O=C(Nc1cccc(S(=O)(=O)N2CCOCC2)c1)c1ccccc1[N+](=O)[O-]	-1.0	0.7	-10	0.0	i	8	-0.8
Nc1nc(=O)n(C2CCCO2)cc1Br (stereo unspecified)	-2.2	/	/	/	i	1	/
CCCCCCSc1cc(-c2nc3cc(C)ccn3c2NC2CCCCC2)ccc1OC	26	0.7	/	-147	i	8	1.5
CN1N=C(C(=O)N2CCCC(Nc3ccc(F)c(F)c3)C2)CCC1=O (stereo unspecified)	-1.5	0.7	-16	-1.2	i	8	2.1
Cc1ccc([N+](=O)[O-])cc1S(=O)(=O)Nc1ccccn1	0.6	0.69	10	0.3	/	0	-3.7
CCOC(=O)Nc1c(O)ccc2oc(C)c(-c3ccccc3)c12	1.4	0.76	14	2.1	/	3	1.1
CS(=O)(=O)NN1C(=O)c2ccccc2NC1c1cccs1 (stereo unspecified)	-2.6	0.67	8	-360	i	5	2.3
COCCCN=C1NN=C(c2cc(C)n(-c3ccccc3F)c2C)CS1	-2.2	0.68	11	-2.7	/	-1	-1.5
COc1ccc(-c2cc3c(=O)n(CC(=O)NC4CCN(Cc5ccccc5)CC4)ncn3n2)cc1	-3.2	0.7	2	0.6	/	4	-1.1
Cc1cc(C)c2c(=O)[nH]c(=O)n(Cc3ccccc3)c2n1	5.1	0.77	-10	0.3	/	1	2.6
CN(CC(=O)Nc1ccc(Cl)cc1)C(=O)c1cc(-c2cccs2)nn1-c1ccccc1	2.8	0.73	-16	-0.2	i	8	-1.4
Cc1ccc(S(=O)(=O)NCc2ccccc2)cc1C(=O)NCC1CCCO1 (stereo unspecified)	-0.3	0.71	0	-1.8	i	-2	4.9
COc1ccc2nc(C)cc(SCC(=O)N/N=C/c3ccco3)c2c1	-4.0	/	3	/	i	2	1.0
CC1=NN(c2ccccc2)C(=O)/C1=C\c1cn(-c2ccccc2)nc1C	-3.7	0.72	-3	0.8	i	2	-4.1
CS(=O)(=O)N(CC(=O)N1CCN(C(c2ccccc2)c2ccccc2)CC1)C1CCCCC1	2.5	0.72	-32	2.8	/	4	2.4
Cc1cc([N+](=O)[O-])c(C)cc1-c1ccc(/C=N/n2cnnc2)o1	0.0	/	-16	/	i	-5	1.6
CC1Cc2ccccc2N1C(=O)CCS(=O)(=O)c1cccc2nonc12 (stereo unspecified)	-0.6	0.68	-13	2.0	/	5	0.2
Cc1ccc(NC(=O)c2oc3ccccc3c2NC(=O)c2ccc3c(c2)OCO3)cc1	-2.1	0.72	0	-21	/	-2	-8.7
CSCCC1NC(=O)N(CC(=O)Nc2cccc3ccccc23)C1=O (stereo unspecified)	-0.6	0.75	-2	2.4	/	-6	-3.9
COc1ncccc1C(=O)N1CCCC(N2CCN(c3ccc(F)cc3)CC2)C1 (stereo unspecified)	-0.2	0.64	/	2.4	i	3	2.6
Cc1ccc(-n2c(=O)[nH]cc(C(=O)Nc3ccc4c(c3)OCO4)c2=O)cc1C	-2.8	0.74	/	4.6	i	2	-1.8
CC(C)CC(=O)NC(Nc1ccccc1F)C(Cl)(Cl)Cl (stereo unspecified)	-1.2	0.73	-3	-0.2	/	6	-2.0
O=C(CCNC(=O)c1ccc(Br)cc1)NC1CCCCCC1	-1.0	0.62	-4	0.5	i	-11	7.8
CCCCc1nc2cc(C(=O)NCCc3c(C)n[nH]c3C)ccc2o1	-1.1	0.68	-2	0.5	i	-1	1.6
O=C(O)CCn1c(SCc2cc(=O)n3ccccc3n2)nc2ccsc2c1=O	-0.8	0.65	-31	-9.6	i	-2	-0.3
